Compound activity: PubChem BioAssay, ICCB-Longwood Screening Facility, Harvard Medical School
Polio RdRp inh – inhibitors of poliovirus RNA polymerase binding and polymerization. % elongation, % (compound at 16.7 µg/mL). poliovirus polymerase elongation, fluorescence polarization; stronger effect = lower value. 150,000 tested, 0.66% active. P03300; in the data active means % elongation below about 90%; further: some results filed as inactive read as strong as hits
Target sequence (P03300 1749-2209 limits assumed): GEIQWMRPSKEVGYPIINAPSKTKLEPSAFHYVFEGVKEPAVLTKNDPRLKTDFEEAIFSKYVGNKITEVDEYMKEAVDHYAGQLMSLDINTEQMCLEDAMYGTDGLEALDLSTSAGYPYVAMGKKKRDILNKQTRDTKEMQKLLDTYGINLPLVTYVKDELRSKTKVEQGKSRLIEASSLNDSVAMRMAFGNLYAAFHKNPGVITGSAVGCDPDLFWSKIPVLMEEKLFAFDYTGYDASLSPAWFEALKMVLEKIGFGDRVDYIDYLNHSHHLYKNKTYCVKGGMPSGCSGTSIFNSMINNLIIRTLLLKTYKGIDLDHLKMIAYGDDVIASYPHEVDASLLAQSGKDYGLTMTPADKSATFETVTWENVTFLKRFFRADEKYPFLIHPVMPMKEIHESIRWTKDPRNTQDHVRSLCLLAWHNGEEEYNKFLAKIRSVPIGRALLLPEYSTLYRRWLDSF
Mtb MenB inh – inhibitors of Mycobacterium tuberculosis MenB enzyme; P9WNP5; MenB enzyme assay, absorbance read-out; some hits fall short of the stated cut; inhibition, %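 (about 12 µg/mL by stock and volumes)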; 100,000 tested, 0.43% active; AID 540299;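 active means mean of two replicates above 30%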;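 further: 0% = no compound and 100% = wells with inactive enzyme; the first replicate is given; strong numbers were not always called active; inactives centre near -10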
Mtb MbtI inh – inhibitors of Mycobacterium tuberculosis siderophore enzyme MbtI. inhibition, %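 (about 17 µg/mL by stock and volumes)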. P9WFX0. 100,000 tested, 0.89% active. purified MbtI enzyme, fluorescence intensity read-out;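 active means above 50% in both replicates, above 80% if mildly self-fluorescent; inactive means the rest, strongly fluorescent compounds included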;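 further: 0% = mean of negative and 100% = mean of positive controls; one replicate is shown; some compounds called inactive have numbers as strong as hits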
Target sequence (P9WFX0 whole entry, looked up): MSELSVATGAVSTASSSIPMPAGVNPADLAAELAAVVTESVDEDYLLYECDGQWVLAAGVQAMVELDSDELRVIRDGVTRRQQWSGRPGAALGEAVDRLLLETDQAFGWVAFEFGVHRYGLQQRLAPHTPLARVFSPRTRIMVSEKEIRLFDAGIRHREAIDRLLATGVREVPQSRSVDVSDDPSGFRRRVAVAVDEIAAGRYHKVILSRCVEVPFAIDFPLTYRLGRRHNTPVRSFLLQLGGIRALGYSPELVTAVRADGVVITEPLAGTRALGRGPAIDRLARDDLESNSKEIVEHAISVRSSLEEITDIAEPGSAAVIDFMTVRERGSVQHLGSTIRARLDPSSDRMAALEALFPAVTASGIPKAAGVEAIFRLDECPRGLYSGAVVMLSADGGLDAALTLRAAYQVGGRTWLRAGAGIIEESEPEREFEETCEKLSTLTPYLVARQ
Polio RdRp inh intensity – recorded beside Polio RdRp inh, whose call it bears; % elongation; measured here: total intensity read-out; formula for this scale not given here;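 total fluorescence in place of polarization; lower means less elongation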
Numbers without * were called inactive; nt = not tested or not shown; & = joins results of further samples.

Key to letters – A = Polio RdRp inh; B = Polio RdRp inh intensity; C = Mtb MenB inh; D = Mtb MbtI inh
[1] Cc1ccc(-c2nnc(SCc3csc(-c4ccccc4)n3)n2N)cc1
  A: 107 | B: 105 | C: -15 | D: 6

[2] Cc1ccc(NNC(=O)c2cc(C)on2)c(C)c1
  A: 103 | B: 96 | C: -25 | D: 10

[3] Cc1cccc(C)c1NC(=O)N1C2CCC1CC(O)(c1cccnc1)C2 (configuration not stated)
  A: 101 | B: 102 | C: 3 | D: -17

[4] CCCCC[C@H](O)/C=C/[C@@H]1[C@H](C/C=C\CCCC(=O)O)[C@@H](O)C[C@H]1O
  A: 102&100 | B: 101&101 | C: 1 | D: -15

[5] CC(C)Cn1c(=O)c2sccc2n2c(CCCC(=O)N(C)Cc3ccco3)nnc12
  A: 103 | B: 107 | C: -12 | D: -3

[6] COc1ccc(N=C2C(=O)N3c4c(cc(C)cc42)C(C)=CC3(C)C)cc1
  A: 103 | B: 98 | C: 1 | D: 1

[7] COc1ccc(-c2cc(-c3ccccc3)c(C#N)c(SCS(=O)Cc3ccccc3)n2)cc1 (configuration not stated)
  A: 103 | B: 106 | C: -11 | D: 55

[8] Cc1[nH]n(-c2nc(-c3ccccc3)cs2)c(=O)c1N=Nc1ccc(O)cc1
  A: 101 | B: 100 | C: -109 | D: 5

[9] CN1CCN(NC(=O)CC(C)(C)C)CC1
  A: 99 | B: 105 | C: 3 | D: -10

[10] Cc1ccc2[nH]c(C)cc(=S)c2c1
  A: 101 | B: 100 | C: -67 | D: 22

[11] COc1ccc(CCN2C(=O)C3CC=C(C)CC3C2=O)cc1OC (configuration not stated)
  A: 102 | B: 102 | C: -51 | D: 5

[12] NC(=O)c1ccc(NC(=O)CC23CC4CC(CC(Br)(C4)C2)C3)cc1
  A: 103 | B: 104 | C: nt | D: -3

[13] CCOc1ccccc1C=Nc1ccc(OC(F)(F)F)cc1
  A: 102 | B: 105 | C: nt | D: 6

[14] Clc1ccc(N2CCNCC2)cc1
  A: 110 | B: 101 | C: 14 | D: 6

[15] CCc1noc(C)c1C(=O)NC(c1ccccc1)c1ccc(Cl)cc1 (configuration not stated)
  A: 109 | B: 108 | C: -13 | D: -10

[16] Cc1ccc(C)c(NC(=O)CSc2nnc(CNC(=O)c3ccco3)n2-c2ccc(F)cc2)c1
  A: 100 | B: 102 | C: -46 | D: -5

[17] CC(C)c1ccc(S(=O)(=O)c2cnc(SCC(=O)Nc3ccccc3)[nH]c2=O)cc1
  A: 99 | B: 107 | C: -3 | D: 2

[18] Cc1ccccc1NC(=S)N(CCCN1CCOCC1)Cc1cccnc1
  A: 101 | B: 100 | C: 13 | D: 3

[19] Cc1ccc(CN2CCC(CNc3ncnc4onc(C(=O)O)c34)C2)cc1 (configuration not stated)
  A: 103 | B: 102 | C: -11 | D: -6

[20] CC(=O)N1C(=O)N(C(C)=O)C(O)C1O (configuration not stated)
  A: 103 | B: 103 | C: -16 | D: nt

[21] CC(NCCCO)c1ccncc1 (configuration not stated)
  A: 96 | B: 110 | C: -6 | D: 8

[22] COc1ccc(/C=C/C(=O)NCc2ccncc2)cc1
  A: 102 | B: 102 | C: 4 | D: 33

[23] COc1ccccc1C(=O)COC(=O)C1CC(=O)N(CCc2ccccc2)C1 (configuration not stated)
  A: 110 | B: 105 | C: -45 | D: -2

[24] CCCN(CCC)C(C(=O)Nc1cccc(OC)c1)c1ccccc1 (configuration not stated)
  A: 100 | B: 105 | C: 1 | D: -11

[25] CC(C(=O)NC1=NCCS1)N1C(=O)c2ccccc2C1=O (configuration not stated)
  A: 100 | B: 91 | C: -29 | D: -11

The closing 3 entries of the section before come first, to join the parts:
Key to letters – A = Polio RdRp inh; B = Polio RdRp inh intensity; C = Mtb MenB inh; D = Mtb MbtI inh
[23] COc1ccccc1C(=O)COC(=O)C1CC(=O)N(CCc2ccccc2)C1 (configuration not stated)
  A: 110 | B: 105 | C: -45 | D: -2

[24] CCCN(CCC)C(C(=O)Nc1cccc(OC)c1)c1ccccc1 (configuration not stated)
  A: 100 | B: 105 | C: 1 | D: -11

[25] CC(C(=O)NC1=NCCS1)N1C(=O)c2ccccc2C1=O (configuration not stated)
  A: 100 | B: 91 | C: -29 | D: -11

[26] CNC(=S)NC(C)C1CC2CCC1C2 (configuration not stated)
  A: 104 | B: 106 | C: -18 | D: 16

[27] CCCCC(Sc1nc(N)c(NC(=O)c2ccc(OC)cc2)c(=O)[nH]1)C(=O)O (configuration not stated)
  A: 98 | B: 99 | C: 10 | D: -6

[28] COc1ccc(C(=O)Nc2ccc3ncsc3c2)cc1
  A: 103 | B: 97 | C: nt | D: 4

[29] O=C1c2ccccc2C2(c3ccccc3)NCCCN12 (configuration not stated)
  A: 103 | B: 104 | C: -16 | D: -9

[30] CN1CN=C(SCc2ccc(C#N)cc2)NC1
  A: 97 | B: 103 | C: 5 | D: 2

[31] CC(c1ccccc1)n1c(SCC(=O)c2csc3ccccc23)n[nH]c1=O (configuration not stated)
  A: 104 | B: 108 | C: -17 | D: -7

[32] COc1ccc(C2CC(=O)N3CN(C(C)c4ccccc4)CSC3=C2C#N)cc1 (configuration not stated)
  A: 100 | B: 103 | C: -6 | D: 78

[33] CCCn1c(=O)c2c(nc3n2CCCN3c2ccc(OCC)cc2)n(C)c1=O
  A: 107 | B: 99 | C: -21 | D: 5

[34] COC(=O)c1ccc(COC(=O)Cn2c(C)csc2=O)cc1
  A: 104 | B: 97 | C: 10 | D: 3

[35] CC(C)N(C(C)C)S(=O)(=O)c1ccc(Oc2ccc3c4c(c(=O)oc3c2)CCC4)nc1
  A: 103 | B: 116 | C: -5 | D: -19

[36] CCN(CC(=O)Nc1ccccc1OC)CC(=O)Nc1cccc2nsnc12
  A: 103 | B: 107 | C: -27 | D: -36

[37] COc1cc(OC)c(NC(=O)Cn2ncc3c4ccccc4n(C)c3c2=O)cc1Cl
  A: 101 | B: 101 | C: -20 | D: 6

[38] Nc1nnc(SCC(=O)c2ccccc2)s1
  A: 108 | B: 105 | C: -10 | D: nt

[39] COc1ccc(CNC(=O)Cn2nc(-c3ccccc3)ccc2=O)cc1
  A: 103 | B: 101 | C: -9 | D: 8

[40] O=C(/C=C/c1ccc(F)cc1)NC(=S)NCc1ccco1
  A: 101 | B: 105 | C: -2 | D: 21

[41] COc1ccccc1NC(=O)C1=C(C)OCCS1
  A: 104 | B: 97 | C: 13 | D: nt

[42] CC1=CC2=C(OC1N(C)C)c1cccc3cccc(c13)C2=O (configuration not stated)
  A: 93 | B: 107 | C: -66 | D: 74

[43] Cc1cccc(Cn2c(SCc3ccc(C(=O)N4CCCCC4)cc3)nc3ccncc32)c1
  A: 102 | B: 103 | C: -30 | D: 7

[44] O=C(CCCN1C(=O)CSc2ncccc21)NCc1ccc(Cl)cc1
  A: 106 | B: 103 | C: -14 | D: -1

[45] Cc1cccc(C(=O)NCC(=O)OCc2cccc(C(F)(F)F)c2)c1
  A: 102 | B: 104 | C: nt | D: -8

[46] CCCNC(=O)c1ccc2c(c1)N(Cc1ccccc1)C(=O)CS2=O (configuration not stated)
  A: 100 | B: 101 | C: -21 | D: 7

[47] O=C(NC1CCSc2ccccc21)C1=CC=CN2CCS(=O)(=O)N=C12 (configuration not stated)
  A: 102 | B: 95 | C: -19 | D: 17

[48] CCOC(=O)CSC1=NC(=O)/C(=C\c2ccc(Cl)cc2)S1
  A: 170 | B: 196 | C: -8 | D: nt

[49] COc1ccc2c(ccc[n+]2[O-])c1
  A: 101 | B: 100 | C: -17 | D: nt

[50] CSc1ncc(Cl)c(C(=O)NCCc2ccc(S(N)(=O)=O)cc2)n1
  A: 101 | B: 99 | C: -10 | D: -7

[51] Cc1c(C(=O)N2CCC(C)CC2)oc2ccc(S(=O)(=O)N3CCCCC3)cc12
  A: 101 | B: 104 | C: -11 | D: -32

[52] Cc1nc(C(F)(F)F)ccc1C(=O)O
  A: 104 | B: 104 | C: -13 | D: -11

[53] O=C(CSc1ccccn1)N1CCCCC1
  A: 103 | B: 104 | C: -1 | D: 36

[54] CCOC(=O)c1ccc(NC(=O)c2oc3c(c2C)-c2nn(Cc4ccc(C)cc4)cc2CC3)cc1
  A: 102 | B: 104 | C: 6 | D: -23

[55] Oc1ccccc1C1=NC(c2ccc(F)cc2)NC(c2cccnc2)C1 (configuration not stated)
  A: 103 | B: 106 | C: -27 | D: -49

[56] CCCCN(Cc1ccco1)C(=O)c1cc2c(s1)-c1ccccc1OC2
  A: 103 | B: 107 | C: -43 | D: 101

[57] COc1ccc(-c2nc3ccccc3o2)cc1N
  A: 104 | B: 109 | C: -27 | D: 89

[58] Cc1nn(-c2ccccc2)c(N)c1N=Nc1ccccc1OC(F)F
  A: 100 | B: 103 | C: -84 | D: -5

[59] O=C(c1ccc2nccnc2c1)N1CCc2ccccc2C1
  A: 104 | B: 102 | C: -30 | D: 1

[60] Cn1c(=O)[nH]c(=O)c2c1ncn2CCCNC1=NCCCC1
  A: 101 | B: 107 | C: -1 | D: nt

[61] COC(=O)c1ccccc1NC(=O)c1noc2c1CCCC2
  A: 103 | B: 102 | C: -15 | D: -3

[62] COC(=O)c1cc(OC)c(OC)cc1NC=C(C#N)C#N
  A: 103 | B: 111 | C: -41 | D: -39

[63] CCOC(=O)N1CCC(N(CCOC)C(=O)Nc2ccc(CC)cc2)CC1
  A: 101 | B: 102 | C: -16 | D: -5

[64] CC(C)(C)n1nc2c(c1NC(=O)/C=C\c1ccccc1)CS(=O)C2 (configuration not stated)
  A: 100 | B: 101 | C: -17 | D: 18

[65] Cc1cccc(NC(=O)Cn2cnc3c(oc4ccccc43)c2=O)c1
  A: 101 | B: 102 | C: -1 | D: 12

[66] CCCCn1c(SCC(N)=O)nnc1-c1ccco1
  A: 104 | B: 99 | C: -31 | D: -6

[67] Cc1c(-c2ccccc2)sc(N)c1C(=O)N1CCCCC1
  A: 70* | B: 81* | C: -13 | D: 84

[68] CN(C(=O)C(C)(C)C)c1ccc(OCC(=O)N2CCCc3ccccc32)cc1
  A: 103 | B: 101 | C: nt | D: -11

[69] CCOC(=O)CSc1nc(C)c2cc(OC)ccc2n1
  A: 103 | B: 106 | C: -1 | D: 117

[70] N#Cc1ccc(Cn2c(CS(=O)(=O)c3ccccc3)nc3ccccc32)cc1
  A: 101 | B: 96 | C: 5 | D: 6

[71] Cc1ccc2nc(COC(=O)CCCN3C(=O)c4ccccc4C3=O)cc(=O)n2c1
  A: 101 | B: 97 | C: 14 | D: 2

[72] CCNc1nc2c(=O)[nH]sc2c2c1C(c1cccnc1)C(C#N)=C(N)O2 (configuration not stated)
  A: 99 | B: 102 | C: -5 | D: 1

[73] CCC1Sc2cc(S(=O)(=O)N3CCCc4ccccc43)ccc2NC1=O (configuration not stated)
  A: 103 | B: 107 | C: -17 | D: -3

[74] CN(C)C(=O)c1cn(CCC#N)nc1-c1cccc2ccccc12
  A: 102 | B: 107 | C: 19 | D: 1

[75] CCN(CC)C(=O)CSc1nnc(SCc2ccccc2)s1
  A: 101 | B: 105 | C: -18 | D: -5

The listing continues.
Key to letters – A = Polio RdRp inh; B = Polio RdRp inh intensity; C = Mtb MenB inh; D = Mtb MbtI inh
[76] CCCC1NC(=O)N(CN(C)Cc2ccc(C)cc2)C1=O (configuration not stated)
  A: 108 | B: 109 | C: 6 | D: -1

[77] CC(C)(C)c1ccccc1OCCCSC#N
  A: 104 | B: 104 | C: -31 | D: -1

[78] O=C(Nc1ccccc1)c1scc2c1CCCC2
  A: 106 | B: 105 | C: -4 | D: nt

[79] Cc1ccc(N2CC(NC(=O)OCCN(C)C)CC2=O)cc1 (configuration not stated)
  A: 104 | B: 103 | C: -13 | D: -11

[80] COc1ccc(CCN2CC(=O)N3CCCC(C4=CC(=O)C=CC4=O)=C3C2=O)cc1OC
  A: 95 | B: 108 | C: -13 | D: 99*

[81] CCSc1nnc(CNC(=O)C23CC4CC(CC(C4)C2)C3)n1CC
  A: 101 | B: 100 | C: -9 | D: 2

[82] CCC1CCCCN1C(=O)COC(=O)c1ccc(C#N)cc1 (configuration not stated)
  A: 102 | B: 106 | C: nt | D: -7

[83] O=S(=O)(/C=C/c1ccccc1)c1ccc(F)cc1F
  A: 100 | B: 99 | C: -14 | D: 20

[84] O=C(CNc1ccccc1-c1ccccc1)NCc1ccccc1
  A: 98 | B: 95 | C: nt | D: -26

[85] O=C(Nc1ccccc1N1CCCCC1)c1ccc2ncccc2c1
  A: 102 | B: 100 | C: -14 | D: -11

[86] COc1cc2c(cc1OC)C(C#N)N(C(=O)c1ccccc1)C=C2 (configuration not stated)
  A: 104 | B: 100 | C: -46 | D: nt

[87] CN(C)/C=C1/C(=O)N(c2ccccc2)N=C1C(F)(F)F
  A: 104 | B: 106 | C: 3 | D: 4

[88] CCN(CC)Cn1c(=S)sc2ccccc21
  A: 100 | B: 102 | C: -13 | D: 87*

[89] Cc1nc2cc(C(=O)c3ccccc3)ccc2[nH]c1=O
  A: nt | B: nt | C: 2 | D: 4

[90] Cc1ccc2o/c(=N\O)c(C(N)=O)cc2c1
  A: 100 | B: 101 | C: -12 | D: 100*

[91] O=C(OCc1cc(=O)oc2cc(O)ccc12)c1ccc(C(F)(F)F)cc1
  A: 101 | B: 104 | C: -4 | D: -169

Record cards, from the list above:
Record of CCN(CC)Cn1c(=S)sc2ccccc21 = Polio RdRp inh: 100; Polio RdRp inh intensity: 102; Mtb MenB inh: -13; Mtb MbtI inh: 87*
Record of Cc1nc2cc(C(=O)c3ccccc3)ccc2[nH]c1=O = Polio RdRp inh: nt; Polio RdRp inh intensity: nt; Mtb MenB inh: 2; Mtb MbtI inh: 4
